D2 agonist = activates the human D2 dopamine receptor; P14416; DiscoveRx PathHunter D2 beta-arrestin, luminescence, 90 min; 100% = 57 uM dopamine signal; activation, % (concentration not given with the values); actives 0.084% (n = 360,000); in the data active = activation above about 40%; inconclusive = about 15% to 40%; inactive = below about 15%; further: compound concentration not given in the record; the text of the record calls up to 30% inactive
Target sequence (P14416 whole entry, looked up): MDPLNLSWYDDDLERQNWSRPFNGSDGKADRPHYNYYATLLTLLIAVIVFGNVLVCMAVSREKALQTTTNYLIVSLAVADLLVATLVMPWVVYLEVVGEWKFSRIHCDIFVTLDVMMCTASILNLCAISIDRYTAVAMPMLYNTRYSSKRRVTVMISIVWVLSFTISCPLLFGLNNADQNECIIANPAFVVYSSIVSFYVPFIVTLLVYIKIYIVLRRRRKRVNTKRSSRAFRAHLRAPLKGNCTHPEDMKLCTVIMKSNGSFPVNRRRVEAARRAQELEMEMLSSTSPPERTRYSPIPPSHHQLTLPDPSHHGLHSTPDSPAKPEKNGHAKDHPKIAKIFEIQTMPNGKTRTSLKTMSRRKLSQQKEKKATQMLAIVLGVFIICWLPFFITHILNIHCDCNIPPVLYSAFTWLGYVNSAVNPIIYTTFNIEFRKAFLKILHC
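DiscoveRx PathHunter D2 beta-arrestin cells (2,100/well) attached overnight, then compound-stimulated 90 min at 37 C in HBSS/10 mM HEPES/0.1% Tween-20 buffer; beta-galactosidase complementation read by luminescence after 1 h at ambient temperature. Dopamine 57 uM final (EC100) as control.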
CtBP-E1A inh = inhibitors of CtBP/E1A interaction | AlphaScreen GST-E1A/His-CtBP binding, 1536-well; stronger effect = lower value; control for the full effect not named in the record | activity change, % (no concentration beside the values) | actives 0.49% (n = 340,000); in the data active means activity change below about -65%; inconclusive means about -30% to -65%; inactive means above about -30%; further: on the % scale 0 is the no-effect control and ±100 the full control effect; compound concentration not given in the record
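Steps: dispense buffer (Tris pH 8.0, NaCl 300 mM, TCEP 1 mM, BSA, Tween 20); add 5X protein mix (GST-E1A, His-CtBP, 125 nM each); pin 23 nL compound; 2 h at 37 °C, dark; add 5X beads (50 ug/mL); 1 h; read.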
gsp ag = gsp mutant agonism; gsp mutant cells, cAMP HTRF, 30 min; control for the full effect not named in the record; Potency, µM (highest dose often 76.9 µM), without a hit: at the top dose activation (cAMP increase), hits mostly activators; actives 0.13% (n = 340,000); AID 624287; active = well fitted activation curve with a large enough effect; inconclusive = small, poorly fitted or top-dose-only effect, or another doubt; inactive = no such curve, though single readings can be large or run the other way; cell line not stated here;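 further: phosphodiesterase inhibitor Ro 20-1724 added with compounds to block cAMP breakdown; potency means the concentration at half of the fitted maximal effect; nearly all actives have a fitted effect of over 60% in size; about a fifth of the inactives were tested at one dose only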
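Cells in DMEM/10% FBS with G418 were pretreated with compounds in DMSO plus […] (300 uM stock) for 30 min at 37C. cAMP was measured by HTRF (cAMP-d2 plus anti-cAMP antibody-K) after 30 min at room temperature.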
Six1-Eya2 inh = inhibitors of human Six1/Eya2 interaction; Q15475+O00167; AlphaScreen GST-Six1/His-Eya2 binding, biochemical; stronger effect = lower value; control for the full effect not named in the record; activity change, % (concentration not given with the values); actives 0.56% (n = 360,000); AID 651725; in the data active = activity change below about -65%; inconclusive = about -30% to -65%; inactive = above about -30%; further: on the % scale 0 is the no-effect control and ±100 the full control effect
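AlphaScreen luminescence read after one hour at 37 °C in darkness. Pin-transferred compounds met GST-Six1 and His-Eya2 protein (5X stock 250 nM/500 nM) plus glutathione donor and Ni-chelate acceptor beads (5X, 50 ug/mL).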
gsp antagonist = antagonizes gsp, the McCune-Albright syndrome mutation. Potency, µM (series often up to 76.9 µM), without a hit: at the highest dose activity change, negative = inhibition, actives largely listed as inhibitors. actives 0.4% (n = 340,000). gsp-mutant cells, cAMP HTRF, 30 min; control for the full effect not named in the record. AID 624288; active = falling curve of any shape with a large fitted effect; inconclusive = falling curve, mostly with a smaller effect; inactive = flat or rising curve; cell line not stated here;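 further: intracellular cAMP measured with PDE inhibitor Ro 20-1724 present during compound exposure; potency means the concentration at half of the fitted maximal effect; on the % scale 0 is the no-effect control and ±100 the full control effect; nearly all actives have a fitted effect of over 65% in size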
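Cells in G418 medium, seeded 16-24 h, 37C; buffer exchange to DPBS + 1 mM CaCl2, 0.5 mM MgCl2, 0.05% BSA; cpds in DMSO + […] (300 uM stock), 30 min 37C; HTRF cAMP detection.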
D2 potentiator = positive allosteric modulators of human D2 dopamine receptor; potentiation, % (no concentration beside the values); AID 624464; P14416; DiscoveRx D2 beta-arrestin cells, luminescence, 90 min; 100% = 57 uM dopamine signal; actives 0.23% (n = 360,000); active = potentiation of 50% or more; inconclusive = 30% to 50%; inactive = 30% or less;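 further: compound concentration not given in the record; tested on top of an EC20 dose of dopamine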
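PathHunter D2 cells, attached overnight at 37 deg C, received compound in DMSO plus dopamine at EC20 (50 nM final) for 90 min at 37 deg C. Beta-arrestin recruitment was read as luminescence after 1 h with detection reagent at ambient temperature.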
* hit, by the source's call; ? = inconclusive; · = not tested or not shown; [ ] = another dose, or the depositor's remark.

SMILES | D2 agonist | CtBP-E1A inh | gsp ag | Six1-Eya2 inh | gsp antagonist | D2 potentiator
CCC1CCCCN1CCCNC(=O)CN1C(=O)COc2ccccc21 (centres undefined) | 0.0 | 2 | ? | 2 | 17% | -2
NS(=O)(=O)c1cccc(NC(=O)CN2C(=O)C(=O)N(Cc3ccccc3)C2=O)c1 | 0.5 | 3 | 13% | 6 | -3% | -6
CC(C)C(NS(=O)(=O)c1ccc2c3c(cccc13)C(=O)N2)C(=O)O (centres undefined) | -5.0 | 1 | 6% | -13 | 7% | -5
COC(=O)CCCC1=CC2=C(c3ccccc3)C(=O)C(C)(OC(=O)C3CCCC3)C(=O)C2=CN1CC(C)C (centres undefined) | 0.5 | -14 | · | -14 | -10% | -2
O=C(Nc1ccccc1)c1ccc(NCC2CCCO2)c([N+](=O)[O-])c1 (centres undefined) | -2.8 | 0 | -5% | 2 | -10% | -17
COc1cc(/C=C/C(=O)OC2CC3CCC2(C)C3(C)C)ccc1O (centres undefined) | -4.0 | -1 | · | -3 | -18% | -63
N/C(=N\O)c1cn(Cc2ccccc2Cl)c2ccccc12 | 2.4 | 10 | -9%[15.4 µM] | -1 | 23% | 15
CC1CCCC(C)N1C(=O)c1cc(-c2ccco2)on1 (centres undefined) | -3.2 | 1 | -2%[15.4 µM] | 7 | 4% | 3
COC(=O)C(C)n1cnc2c(nnn2-c2ccc(F)cc2)c1=O (centres undefined) | -4.7 | -2 | 3% | 2 | 0% | -8
Cc1occc(=O)c1OCc1ccc(Cl)cc1Cl | -1.6 | -6 | -1% | -22 | -8% | -15
CC(=O)Nc1cc(=O)c2cccnc2[nH]1 | 8.3 | -14 | ? | ? | 4% | 2
CC(C)[C@H](NC(=O)c1ccccc1F)C(=O)Nc1nc2c(s1)CCCC2 | 2.7 | -5 | 0%[15.4 µM] | -1 | -5% | -6
COC(=O)c1cccc(NC(=O)CSc2nnnn2C)c1 | -0.1 | 0 | 8% | 4 | 0% | 29
O=C1CN(C(=O)c2ccccc2)c2ccccc2N1 | -0.6 | -3 | 27% | 7 | 16% | 2
COc1ccc(Cl)cc1N1Cc2ccccc2C1 | -0.8 | 0 | -1% | 18 | 13% | -9
COCCNC(=O)c1c(N)n(/N=C/c2cccs2)c2nc3ccccc3nc12 | -2.0 | 4 | -3% | 12 | 6% | 1
COc1cccc(CNS(=O)(=O)c2ccc3c(c2)CC(C)N3C(C)=O)c1 (centres undefined) | -1.8 | 7 | 0% | 2 | -6% | -5
COc1cccc(NC(=O)Cc2nnc(SCC(=O)NC3CCCCC3)n2C)c1 | -6.5 | -11 | -9%[15.4 µM] | -7 | 8% | 0
CCn1c(/C=C/c2ccccc2C)nc2ccccc2c1=O | -5.4 | 1 | 0% | -13 | -25% | -3
O=C(Nc1ccncc1)c1cccc(S(=O)(=O)N2CCOCC2)c1 | 0.7 | 9 | -3% | 0 | 12% | 1
COc1cc(/C=N/O)cc(Br)c1OCc1ccc(Cl)cc1 | 0.2 | 9 | 0% | 0 | -19% | 0
CCOCC(=O)Nc1ccc(S(=O)(=O)N2CCOCC2)cc1 | -0.3 | -2 | 16% | 7 | 1% | -4
Cc1ccc(NC(=O)Cn2nc(C)c3ccccc3c2=O)cc1 | -3.9 | 4 | ? | -3 | 2% | -28
COc1ccc(Cl)cc1NS(=O)(=O)c1cn(C)nc1C | 0.2 | 2 | -14% | 10 | 11% | 10
CC(C)Oc1ccc(CN2CCC(n3nccc3NC(=O)C3CC3)CC2)cc1 | -6.3 | 6 | -9% | 1 | -7% | -12

6 compounds out of the list above, arranged by the value under Six1-Eya2 inh, lowest first.
canonical_smiles | Six1-Eya2 inh
CC(C)C(NS(=O)(=O)c1ccc2c3c(cccc13)C(=O)N2)C(=O)O (centres undefined) | -13
N/C(=N\O)c1cn(Cc2ccccc2Cl)c2ccccc12 | -1
COc1cc(/C=N/O)cc(Br)c1OCc1ccc(Cl)cc1 | 0
O=C(Nc1ccccc1)c1ccc(NCC2CCCO2)c([N+](=O)[O-])c1 (centres undefined) | 2
COc1ccc(Cl)cc1NS(=O)(=O)c1cn(C)nc1C | 10
COCCNC(=O)c1c(N)n(/N=C/c2cccs2)c2nc3ccccc3nc12 | 12

Fetched by compound from the list above, two records:
SMILES | D2 agonist | CtBP-E1A inh | gsp ag | Six1-Eya2 inh | gsp antagonist | D2 potentiator
CC(=O)Nc1cc(=O)c2cccnc2[nH]1 | 8.3 | -14 | ? | ? | 4% | 2
COc1cc(/C=C/C(=O)OC2CC3CCC2(C)C3(C)C)ccc1O (centres undefined) | -4.0 | -1 | · | -3 | -18% | -63

New compounds follow:
SMILES | D2 agonist | CtBP-E1A inh | gsp ag | Six1-Eya2 inh | gsp antagonist | D2 potentiator
COc1cc(NC(=O)Cc2nn(C)c(=O)c3ccccc23)cc(OC)c1 | 4.7 | -15 | -2% | -21 | -12% | -21
Cc1ccc(C)c(S(=O)(=O)N2CCCOC2CNC(=O)C(=O)NCc2cccnc2)c1 (centres undefined) | -1.2 | · | -3% | -2 | 5% | -3
CC(C)COP(=O)(c1ccc(N(C)C)cc1)C(O)c1ccccc1F (centres undefined) | 0.4 | 0 | -47%[inhibitor] | -2 | 7% | -23
COc1ccc(C(=O)NC(C)c2cccnc2)cc1S(=O)(=O)N(C)Cc1ccccc1 (centres undefined) | 7.3 | · | ? | -1 | -4% | -7
Cc1c(OCC(=O)OC(C)(C)C)ccc2c3c(c(=O)oc12)CCC3 | 6.8 | 2 | 27% | 11 | -15% | 2
COc1cccc(OCc2cc(C(=O)N3CCC(c4ccncc4)CC3)no2)c1 | 7.3 | 4 | 10% | 2 | -13% | -3
Oc1c(Br)cc(Br)cc1C=Nc1ccc2c(c1)OCO2 | -11 | 5 | 27% | 1 | ? | -15
COc1ccc(NC(C)=O)cc1S(=O)(=O)N1CCN(Cc2cccs2)CC1 | -1.2 | -11 | 4% | 3 | 3% | -5
O=C(NCc1ccco1)C(=S)N1CCCCC1 | -0.4 | 10 | -8%[15.4 µM] | -15 | 11% | -4
CCCCCC(=O)Nc1ccc(C(=O)COC(=O)c2ccccn2)cc1 | 0.2 | -12 | -8%[15.4 µM] | -18 | 9% | -4
COc1ccc(NC(=S)Nc2cc(C(F)(F)F)ccc2F)cc1 | -4.6 | 0 | 14%[15.4 µM] | 6 | -1% | -4
O=C(CSCc1ccc(F)cc1)NCc1ccc(F)cc1 | -2.6 | -4 | -10%[15.4 µM] | 2 | -3% | -25
Cc1noc(C)c1COc1ccc(C(=O)OCC(=O)Nc2cccc(S(=O)(=O)N3CCOCC3)c2)cc1 | -0.4 | -5 | -6% | 0 | -18% | -6
CCOC(=O)C1=C(CSc2nc(C)ccc2C#N)OC(N)=C(C#N)C1c1cccc(OC)c1OC (centres undefined) | -2.2 | ? | 40% | -23 | -12% | -3
O=C1c2ccccc2OC2(C=Cc3ccccc3O2)N1Cc1ccccc1 (centres undefined) | -4.0 | -5 | ? | -6 | 7% | -10
CN1CCN(Cc2c(O)ccc3cc(Br)ccc23)CC1 | 2.7 | 3 | ? | -2 | 6% | -7
O=C(NN1C(=O)C2C3C=CC(C4CC34)C2C1=O)c1ccc(Cl)c(Cl)c1 (centres undefined) | -0.1 | 12 | 0% | 1 | -8% | -12
CSc1cccc(CN2CCC(CO)(Cc3ccccc3)CC2)c1 | 3.0 | · | -1%[15.4 µM] | 7 | -2% | -19
COCCNC(=O)C1Cc2c(-c3ccc(NC(C)=O)cc3)ccnc2O1 (centres undefined) | -3.1 | 5 | · | 6 | · | 9
Cc1ccc([C@H]2C[C@H](n3cc(COC(=O)c4ccccc4)nn3)[C@@H](O)CN2Cc2cccs2)cc1 | -2.3 | -8 | ? | 0 | · | ·
CC(C)[C@H](NC(=O)N1CC(=O)Nc2ccccc21)C(=O)N[C@@H](Cc1ccccc1)C(=O)O | 13 | 8 | · | 2 | 11% | 8
NC(=O)c1cc(C(=O)c2cccc(Cl)c2Cl)c[nH]1 | 1.6 | -1 | -24% | 1 | 3% | 5
COc1ccc2ccc(=O)oc2c1CC(O)C(C)(C)O (centres undefined) | 2.0 | 3 | -19% | -1 | 0% | 3
Cc1ccc(S(=O)(=O)N(C)C)cc1NC(=O)COC(=O)C1CCN(S(=O)(=O)c2cccs2)CC1 | -3.7 | 1 | 8%[15.4 µM] | -7 | -6% | -4
Cc1ccccc1C(=O)Nc1cccc(NC(=O)c2ccccc2[N+](=O)[O-])c1 | 2.3 | · | -27% | -12 | -8% | 0
SMILES | D2 agonist | CtBP-E1A inh | gsp ag | Six1-Eya2 inh | gsp antagonist | D2 potentiator
O=C(OC(c1ccccc1)c1nccc2ccccc12)c1cccc([N+](=O)[O-])c1 (centres undefined) | -1.5 | -19 | ? | -21 | -30% | 0
COc1ccc(NC2CCN(C3CC(=O)N(c4ccc(F)c(Cl)c4)C3=O)CC2)cc1 (centres undefined) | -0.3 | -10 | 21% | -10 | -1% | -5
O=S(=O)(Nc1cccc2c1CCCC2)c1cccc(C(F)(F)F)c1 | -0.7 | 16 | ? | 16 | 3% | 3
O=C(CCS(=O)(=O)c1cccc2nsnc12)NCc1ccccc1 | -1.1 | -1 | 16% | 3 | 9% | -5
CCOc1ccccc1NC(=O)C1=C(C)NC(=S)NC1c1cccs1 (centres undefined) | -3.5 | 3 | ? | -7 | -11% | -12
O=C(c1ccco1)N1CCN(C(=O)c2cc3cc([N+](=O)[O-])ccc3oc2=O)CC1 | 0.5 | 4 | -2%[15.4 µM] | 0 | -11% | -3
CN(CC(=O)Nc1ccc(Cl)c(C(F)(F)F)c1)C(=O)C1CC(=O)N(c2ccc3c(c2)OCCO3)C1 (centres undefined) | -1.7 | -1 | -66%[inhibitor] | -3 | · | -31
CSC1=N/C(=C\c2ccccc2)C(=O)N1C | -1.8 | 4 | -38% | 2 | -7% | -12
O=C(C1CCN(C2CCN(CC3CC=CCC3)CC2)CC1)N1CCOCC1 (centres undefined) | 0.7 | · | 11% | -2 | 8% | 1
COc1ccc(N2CCN(C(=S)Nc3cccc(OC)c3)CC2)cc1 | 5.3 | 4 | -65%[inhibitor] | 4 | 1% | -5
CCCCC(=O)Nc1nn(C)c2nc3c(C)cccc3cc12 | -2.1 | 8 | 25% | 4 | ? | 4
CCc1ccc(C(=O)NNC(=O)C2CC(=O)N(c3ccc4c(c3)OCCO4)C2)cc1 (centres undefined) | -4.6 | -5 | 0% | 1 | 11% | -3
O=C(c1ccc(-n2cncn2)c([N+](=O)[O-])c1)N1CCN(S(=O)(=O)c2c(F)cccc2F)CC1 | -0.1 | 3 | 9% | 1 | 2% | -10
O=C(NCC1CCN(Cc2cccc(Cl)c2)CC1)Nc1ccccc1Cl | -2.8 | 0 | -33%[inhibitor] | -10 | 12% | -24
Cc1ccc(-n2c(=O)[nH]c3c(C(N)=O)nc(CC(C)C)nc32)cc1 | -5.5 | 5 | 2% | -1 | 14% | -9
Nc1cc(-c2ccccc2)nn1S(=O)(=O)c1ccc(Br)cc1 | 2.0 | -2 | -12% | -2 | -21% | 0
